Bioassay records as filed in PubChem.
gsp antag – qHTS for Antagonists of gsp, the Etiologic Mutation Responsible for Fibrous Dysplasia/McCune-Albright Syndrome: qHTS | 340,000 compounds, 0.4% hits | Potency, µM (highest dose often 76.9 µM), without a hit: at the top dose activity change, negative = inhibition, actives largely listed as inhibitors | gsp-mutant cells, cAMP HTRF, 30 min; control for the full effect not named in the record; active = falling curve of any shape with a large fitted effect; inconclusive = falling curve, mostly with a smaller effect; inactive = flat or rising curve; cell line not stated here;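 note: intracellular cAMP measured with PDE inhibitor Ro 20-1724 present during compound exposure; potency is the fitted concentration of half-maximal effect; % is set by controls: 0 for no effect and ±100 for the full control effect; nearly all actives have a fitted effect of over 65% in size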
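Measurement of cellular cAMP by homogeneous time-resolved fluorescence following a 30 min compound exposure at 37C. The PDE inhibitor […] was present throughout; the assay buffer was DPBS with 0.05% BSA and 0.005% Tween 20.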
gsp ag – qHTS for Agonist of gsp, the Etiologic Mutation Responsible for Fibrous Dysplasia/McCune-Albright Syndrome: qHTS; gsp mutant cells, cAMP HTRF, 30 min; control for the full effect not named in the record; Potency, µM (titrated, usually from 76.9 µM), for the others: at the top dose activation (cAMP increase), hits mostly activators; 340,000 compounds, 0.13% hits; active = well fitted activation curve with a large enough effect; inconclusive = small, poorly fitted or top-dose-only effect, or another doubt; inactive = no such curve, though single readings can be large or run the other way; cell line not stated here;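 note: phosphodiesterase inhibitor Ro 20-1724 added with compounds to block cAMP breakdown; potency is the fitted concentration of half-maximal effect; nearly all actives have a fitted effect of over 60% in size; about a fifth of the inactives were tested at one dose only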
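Cells in DMEM/10% FBS with G418 were pretreated with compounds in DMSO plus […] (300 uM stock) for 30 min at 37C. cAMP was measured by HTRF (cAMP-d2 plus anti-cAMP antibody-K) after 30 min at room temperature.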
Six1-Eya2 blk – qHTS Assay for Inhibitors of the Six1/Eya2 Interaction | Homeobox protein SIX1 (Homo sapiens) + Protein phosphatase EYA2 (Homo sapiens), … | AlphaScreen GST-Six1/His-Eya2 binding, biochemical; hits give low values; control for the full effect not named in the record | activity change, % (no concentration beside the values) | 360,000 compounds, 0.56% hits; in the data active = activity change below about -65%; inconclusive = about -30% to -65%; inactive = above about -30%; note: % is set by controls: 0 for no effect and ±100 for the full control effect
Target sequence (O00167 whole entry, looked up): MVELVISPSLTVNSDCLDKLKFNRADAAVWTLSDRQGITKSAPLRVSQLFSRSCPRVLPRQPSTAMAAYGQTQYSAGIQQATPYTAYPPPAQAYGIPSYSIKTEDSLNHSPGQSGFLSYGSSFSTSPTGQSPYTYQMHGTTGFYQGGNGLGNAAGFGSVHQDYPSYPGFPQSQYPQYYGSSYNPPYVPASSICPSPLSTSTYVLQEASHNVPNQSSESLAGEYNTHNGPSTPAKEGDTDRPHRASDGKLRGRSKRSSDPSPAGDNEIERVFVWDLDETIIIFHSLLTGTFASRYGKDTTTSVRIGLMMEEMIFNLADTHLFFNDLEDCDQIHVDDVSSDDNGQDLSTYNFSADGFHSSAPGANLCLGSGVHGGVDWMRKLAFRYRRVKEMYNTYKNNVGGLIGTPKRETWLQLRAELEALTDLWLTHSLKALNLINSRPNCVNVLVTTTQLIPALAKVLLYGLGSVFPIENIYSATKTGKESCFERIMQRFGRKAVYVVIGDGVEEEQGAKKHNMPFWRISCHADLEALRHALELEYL
Target sequence (Q15475 whole entry, looked up): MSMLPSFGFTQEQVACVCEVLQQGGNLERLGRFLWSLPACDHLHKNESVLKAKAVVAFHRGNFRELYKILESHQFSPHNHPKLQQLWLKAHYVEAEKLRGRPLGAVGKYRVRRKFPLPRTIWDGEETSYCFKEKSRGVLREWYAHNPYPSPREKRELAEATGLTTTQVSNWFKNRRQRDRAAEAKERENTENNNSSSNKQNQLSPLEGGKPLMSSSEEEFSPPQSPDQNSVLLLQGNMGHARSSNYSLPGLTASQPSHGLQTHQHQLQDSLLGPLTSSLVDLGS
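AlphaScreen with GST-Six1 and His-Eya2 (5X mix: 250 nM and 500 nM), glutathione donor and nickel acceptor beads; buffer 50 mM Tris pH 8.0, 300 mM NaCl, 1 mM TCEP; 1 h at 37 C in the dark.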
D2 potentiator – Beta-Arrestin HTS for Positive Allosteric Modulators of the Human D2 Dopamine Receptor: Potentiators; DiscoveRx D2 beta-arrestin cells, luminescence, 90 min; 100% = 57 uM dopamine signal; potentiation, % (no concentration beside the values); 360,000 compounds, 0.23% hits; AID 624464, 2012; active = potentiation of 50% or more; inconclusive = 30% to 50%; inactive = 30% or less;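 note: compound concentration not given in the record; tested on top of an EC20 dose of dopamine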
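PathHunter beta-arrestin assay in DiscoveRx D2 cells. Compounds were added with an EC20 of dopamine (50 nM final) for 90 min at 37 deg C. Luminescence was read 1 h after detection reagent, with 57 uM dopamine as the EC100 control.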
D2 ag – Beta-Arrestin HTS for Positive Allosteric Modulators of the Human D2 Dopamine Receptor: Agonists | DiscoveRx PathHunter D2 beta-arrestin, luminescence, 90 min; 100% = 57 uM dopamine signal | D(2) dopamine receptor (Homo sapiens), P14416 | 360,000 compounds, 0.084% hits | activation, % (concentration not given with the values); in the data active = activation above about 40%; inconclusive = about 15% to 40%; inactive = below about 15%; note: the text of the record calls up to 30% inactive
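DiscoveRx PathHunter D2 beta-arrestin cells (2,100/well) attached overnight, then compound-stimulated 90 min at 37 C in HBSS/10 mM HEPES/0.1% Tween-20 buffer; beta-galactosidase complementation read by luminescence after 1 h at ambient temperature. Dopamine 57 uM final (EC100) as control.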
CtBP-E1A inh – qHTS Assay for Inhibitors of the CtBP/E1A Interaction. activity change, % (concentration not given with the values). 340,000 compounds, 0.49% hits. AlphaScreen GST-E1A/His-CtBP binding, 1536-well; hits give low values; control for the full effect not named in the record. CtBP / adenovirus E1A interaction (AlphaScreen); in the data active means activity change below about -65%; inconclusive means about -30% to -65%; inactive means above about -30%; note: % is set by controls: 0 for no effect and ±100 for the full control effect
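In 5 uL wells, 23 nL compound meets equimolar GST-E1A and His-CtBP (5X stock 125 nM each) for 2 h, 37 °C. Beads (5X, 50 ug/mL) then 1 h, 37 °C, dark.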
* marks the source's active call; other numbers are inactive results; ? = inconclusive; nt = not tested or not shown; [ ] = dose if it differs, or a comment.

gsp antag,gsp ag,Six1-Eya2 blk,D2 potentiator,D2 ag,Compound,CtBP-E1A inh
-7%,?,4,-15,-2.8,COc1ccccc1-c1c(C)oc2c(CN3CCN(C)CC3)c(O)ccc2c1=O,8
-13%,-7%[15.4 µM],?,-9,-1.2,O=c1[nH]c(-[n+]2ccccc2)c(/C=N/NC([S-])=Nc2ccccc2)s1,-2
15%,5%,-9,2,-2.5,Cc1cc(Br)ccc1NC(=O)CNC(=O)CSc1n[nH]c(N)n1,-11
10%,-24%,9,-5,1.6,CCOC(=O)/C(C#N)=C(\N)C(C)C(=O)Nc1ccccn1 (centres undefined),4
5%,-35%,5,-2,1.2,CCN1C(=O)[C@@H]2[C@H](C1=O)[C@@H]1C(=O)Nc3ccccc3C(=O)N1[C@@H]2c1cccc(Cl)c1,nt
7%,-27%,-20,-10,-2.8,COc1ccc(/C(O)=C/C(=O)C(=O)NNC(=O)C(O)(c2ccccc2)c2ccccc2)cc1,7
-11%,nt,-1,-7,-4.0,O=C(Nc1cccc(Cl)c1)c1nc[nH]c1C(=O)NCc1ccccc1,0
-16%,?,-29,0,2.9,Cc1[nH]n(-c2ccc(Br)cc2)c(=O)c1C=Nc1ccc(S(=O)(=O)Nc2nccs2)cc1,?
-10%,28%,-10,-19,-1.2,O=C(Nc1ccccc1)Nc1ccc2snnc2c1,0
5%,?,-13,-10,-1.3,S=C(Nc1cccc(Cl)c1)N1CCN(Cc2ccccc2)CC1,2
-23%,3%,-11,-9,0.5,O=C(CSCc1ccccc1)N/N=C/c1cc2c(cc1Br)OCO2,-8
-6%,-12%,-5,87*,?,COCC(=O)OC1CCn2c1nc1c2C(=O)C(C)=C(NC(C)=O)C1=O (centres undefined),0
2%,2%,6,-1,-3.5,Cc1ccc(CN(CC(=O)NC2CCCC2)C(=O)CSc2nnc(COc3ccccc3)o2)cc1,0
1%,4%[15.4 µM],3,-10,-1.2,Cc1ccc(S(=O)(=O)N2CCCCC2)cc1NC(=O)Cn1ccsc1=N,9
4%,10%,-3,-28,-14,Cc1ccc(N=C2C(=O)Nc3ccccc32)c(C)c1,0
4%,-21%,-2,-2,-2.3,Cn1c(SCC(=O)Nc2ccc3c(c2)OCCO3)nnc1C(F)(F)F,11
-8%,37%,4,-3,10,O=C(NCC(=O)N1CCN(c2ccc(C(F)(F)F)cn2)CC1)c1ccc(Br)o1,8
11%,nt,8,-11,-3.4,CCCCCCCCNCCS(=O)(=O)NCCCCCCCC,8
-13%,-25%,-9,-2,-3.9,COc1ccc(C2(C)NC(=O)N(CC(=O)c3cc(C)n(C4CC4)c3C)C2=O)cc1 (centres undefined),nt
1%,-7%[15.4 µM],-24,-7,-1.2,COc1cc2c(C(=O)N3CCN(C)CC3)c(CSc3ccccc3)n(C)c2cc1Br,-17
7%,49%[15.4 µM],-3,-5,-0.4,O=C(CSc1nc(=O)n2ccccc2n1)Nc1cccc2ccccc12,-1
-10%,2%[15.4 µM],-7,-11,0.8,CC1C(=O)N2CCCc3cc(NC(=O)COc4ccc(Cl)cc4)cc1c32 (centres undefined),4
4%,2%,-3,-20,-4.0,COC(=O)CCC(C)N1CCC(Oc2ccc(C(=O)N3CCCC3)cc2)CC1 (centres undefined),-18
13%,-45%[inhibitor],0,12,0.7,CCc1nccn1CCC(=O)NC1CC(C)(C)Cc2c1cnn2-c1cccc(F)c1 (centres undefined),-3
-11%,8%,-1,0,1.0,NS(=O)(=O)c1ccc(CCNC(=O)C2CCC(Cn3c(=S)[nH]c4ccccc4c3=O)CC2)cc1 (centres undefined),-9
-10%,8%,-1,-8,-1.3,COc1cc(C(=O)/C=C/c2cccnc2)ccc1O,-13
-5%,?,1,-5,0.2,O=C(CC1C(=O)NCCN1Cc1ccoc1)NCc1cccc(OC(F)(F)F)c1 (centres undefined),0
14%,0%,2,-5,-1.8,Cc1ccc(NC(=O)CN2C(=O)CC(C)S(=O)(=O)c3ccccc32)cc1 (centres undefined),6
0%,-17%,0,8,-0.2,COc1cccc(/C=N/Nc2ccc(S(=O)(=O)O)cc2)c1O,-2
?,2%,-11,-25,-0.8,Cc1ccc(NC(=S)NC(C)CCc2ccccc2)cc1C (centres undefined),-9

Two entries from above in another layout:
SMILES | gsp antag | gsp ag | Six1-Eya2 blk | D2 potentiator | D2 ag | CtBP-E1A inh
CCN1C(=O)[C@@H]2[C@H](C1=O)[C@@H]1C(=O)Nc3ccccc3C(=O)N1[C@@H]2c1cccc(Cl)c1 | 5% | -35% | 5 | -2 | 1.2 | nt
Cn1c(SCC(=O)Nc2ccc3c(c2)OCCO3)nnc1C(F)(F)F | 4% | -21% | -2 | -2 | -2.3 | 11

Next part
gsp antag,gsp ag,Six1-Eya2 blk,D2 potentiator,D2 ag,Compound,CtBP-E1A inh
nt,nt,?,-2,-5.2,CNc1ccc2ncc(-c3ccc(OC)c(OC)c3)n2n1,?
-4%,-17%[15.4 µM],-2,-6,-2.6,COc1ccc(CNC(=O)COc2ccc(S(=O)(=O)N3CCOCC3)cc2C)cc1,5
4%,?,11,0,4.9,Cc1sc2ncn(CC(=O)NCCCOC(C)C)c(=O)c2c1S(=O)(=O)N1CCN(c2ncccn2)CC1,5
5%,9%,-1,-1,-2.0,COc1ccc(CNC(=O)c2nnn(Cc3ccc(OC)cc3)c2N)cc1,0
nt,nt,?,-10,-5.0,CC1(Cc2ccc(Cl)s2)C(=O)Nc2c(Cl)ccc(Cl)c21 (centres undefined),-15
2%,-7%,-1,-14,-3.5,CC12CCC(=O)C=C1CCC1C2C(=O)CC2(C)C1CC[C@]2(O)C(=O)CO (some centres undefined),-3
nt,nt,18,5,-4.7,OCCNc1ncnc2c1ncn2[C@H]1CN(Cc2ccc(Cl)cc2)C[C@@H](CO)O1,1
-2%,16%,16,-2,5.3,C=CCNC(=O)C1CC(=O)N(c2ccc(OCc3ccccc3Cl)cc2)C1 (centres undefined),-16
-11%,-28%,-5,-1,1.9,O=C(CSc1ncccc1-c1nc2ccccc2[nH]1)N1CCCCC1,-5
-1%,-13%[15.4 µM],1,1,-6.7,COc1ccc(NC(=O)CCNC(=O)Cn2ccc3ccccc3c2=O)cc1OC,28
-2%,10%,0,-9,-1.4,Cc1ccccc1Nc1nnc(SCC(=O)c2c(N)n(C3CC3)c(=O)[nH]c2=O)s1,2
0%,-3%,8,-5,-0.3,CCCCNC(=O)c1[nH]c(C)c(C(C)=O)c1C,-2
1%,-6%,5,4,-1.5,COc1ccccc1OCC(=O)Nc1ccc(O)cc1C(=O)O,-1
nt,27%[15.4 µM],-12,-18,-3.5,Cc1ccc(Cl)cc1N1CCN(C(=S)NCc2ccco2)CC1,-2
2%,5%,0,1,-0.2,Cc1cc(C(=O)NN=C2C3CC4CC(C3)CC2C4)c2ccccc2n1,0
-7%,-30%,-1,-8,0.4,S=C(NCc1ccccc1)NCC1COc2ccccc2O1 (centres undefined),-2
-8%,9%[15.4 µM],1,2,0.0,COc1ccc(S(=O)(=O)N2CCCC2CNC(=O)C(=O)Nc2ccc(F)cc2)cc1 (centres undefined),-2
5%,5%,-8,4,-4.2,COc1ccc(CCC(=O)Nc2cc3c4c(c2)CCC(=O)N4CCC3)cc1,6
-10%,-6%,0,18,-0.8,O=C(OCc1cc2ccccc2[nH]c1=O)c1ccccc1,-1
nt,-45%[inhibitor],-4,-5,-5.8,NC(=O)C1CCN(CC(=O)Nc2ccc3c(c2)OCO3)CC1,-7
3%,-2%,3,-4,-6.2,CCOn1c(=O)c(-c2ccc(Br)cc2)[n+]([O-])c2ccccc21,0
6%,2%[15.4 µM],-1,0,-1.6,COc1cc(C(=O)OCC(=O)N2CCOCC2)c([N+](=O)[O-])cc1OC,0
19%,-24%,1,1,-3.5,Cc1cnc(-c2nnc(N(C)C(=O)C3CCOC3)s2)cn1 (centres undefined),10
2%,-4%,-1,-3,-2.3,COc1ccc(NC(=S)Nc2cccc([N+](=O)[O-])c2)cc1,1
-8%,nt,1,-8,-7.0,Cc1noc(C)c1NC(=O)N(C)C[C@H]1Oc2ccc(NS(=O)(=O)c3ccccc3)cc2C(=O)N([C@H](C)CO)C[C@@H]1C,6
-4%,12%,-16,-2,3.9,COc1cc(/C=C/C(=O)Nc2ccc(S(=O)(=O)Nc3ncccn3)cc2)ccc1OCC#N,nt
-16%,5%,-2,-31,-4.6,CS(=O)(=O)N(CCc1ccccc1)CC(=O)N1CCN(c2ccccc2)CC1,5
nt,-2%[15.4 µM],3,-29,1.4,COc1ccc(CC(=O)NC(C)CCc2ccccc2)cc1 (centres undefined),16
4%,4%,1,4,-2.2,O=C(Oc1ccc2c(c1)CCC2)N1CCOCC1,7
nt,nt,-28,0,-8.2,Cn1cc(-c2ccc3c(c2)OCO3)c2ccccc21,-27
-6%,-6%[15.4 µM],-9,-12,0.2,COc1cc(OC)cc(C(=O)N[C@H](C(=O)Nc2ccc(NC(C)=O)cc2)C(C)C)c1,-21
1%,3%,-14,-14,-13,O=C(COc1cc2oc(=O)c3c(c2cc1Cl)CCC3)NCCN1CCOCC1,-22
-13%,-1%,2,0,0.0,Cc1ccc(NC2=C([N+](=O)[O-])CS(=O)(=O)C2)cc1,-1

Some of these compounds in order of their number in D2 ag, lowest first.
gsp antag,gsp ag,Six1-Eya2 blk,D2 potentiator,D2 ag,Compound,CtBP-E1A inh
2%,-7%,-1,-14,-3.5,CC12CCC(=O)C=C1CCC1C2C(=O)CC2(C)C1CC[C@]2(O)C(=O)CO (some centres undefined),-3
-13%,-1%,2,0,0.0,Cc1ccc(NC2=C([N+](=O)[O-])CS(=O)(=O)C2)cc1,-1
-11%,-28%,-5,-1,1.9,O=C(CSc1ncccc1-c1nc2ccccc2[nH]1)N1CCCCC1,-5

Records listed above marked active in D2 potentiator:
gsp antag,gsp ag,Six1-Eya2 blk,D2 potentiator,D2 ag,Compound,CtBP-E1A inh
-6%,-12%,-5,87*,?,COCC(=O)OC1CCn2c1nc1c2C(=O)C(C)=C(NC(C)=O)C1=O (centres undefined),0
